HNF4A DNA FP: change in binding of human HNF4A to DNA, primary screen, biochemical, fluorescence polarization, FITC-DNA; hit rate 0.3% among 360,000; 1 h; activity change, % at 10 µM; Hepatocyte nuclear factor 4-alpha (Homo sapiens), P41235; in the data active = activity change above about 30%, passing the limit was not always enough;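 also: controls were the assay level and a saturating level of protein; the project sought stronger binding though the title names inhibitors; some compounds called inactive have numbers as strong as hits; positive values seem to mean higher polarization but the record does not say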
Target sequence (P41235 whole entry, looked up): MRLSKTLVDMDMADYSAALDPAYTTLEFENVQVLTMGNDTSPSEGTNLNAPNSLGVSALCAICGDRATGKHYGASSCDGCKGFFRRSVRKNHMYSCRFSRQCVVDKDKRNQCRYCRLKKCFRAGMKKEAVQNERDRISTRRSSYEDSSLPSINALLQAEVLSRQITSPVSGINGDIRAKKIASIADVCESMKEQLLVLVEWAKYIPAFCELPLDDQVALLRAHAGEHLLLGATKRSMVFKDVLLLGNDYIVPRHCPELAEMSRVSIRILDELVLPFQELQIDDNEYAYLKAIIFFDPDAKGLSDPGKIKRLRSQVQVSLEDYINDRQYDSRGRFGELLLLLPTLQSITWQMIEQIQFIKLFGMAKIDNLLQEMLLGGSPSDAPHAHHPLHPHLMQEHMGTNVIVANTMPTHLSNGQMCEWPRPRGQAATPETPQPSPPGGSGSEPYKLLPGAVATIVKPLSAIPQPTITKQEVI
LANA-H2A inh: blockers of LANA interaction with H2A/H2B – biochemical, FP readout, HTS, primary screen. Protein LANA1 (Human herpesvirus 8 type P (isolate GK18)), Q9QR71. cell-free LANA-H2A/H2B peptide, fluorescence polarization. inhibition, % (test concentration not listed). hit rate 0.6% among 320,000. AID 2629, 2010; in the data active = inhibition mostly above about 10%, no sharp cut-off; inactive = mostly below about 6.7%;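 also: stock transfer was 7.5 nL into about 10 µL; 0% = median of vehicle wells and 100% = median of positive control wells; one replicate is shown; the record names a cut of 25% in any replicate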
A1 inh: caspase 3/7 activation in MEF A1-2A-BIM cells, primary screen, A1 inhibitor project, cell-based, luminescence, HTS; hit rate 0.066% among 330,000; AID 2462, 2010; caspase activation, % (test concentration not listed); Caspase-Glo 3/7 luminescence, 3 h; percent of clofoctol response, vehicle zero;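 active = over half of replicate activation scores above 10%, or exactly half above 10 with the replicate mean above 10; inconclusive = replicate mean below 10 yet half the replicates above 10; inactive = over half of replicates below 10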;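 also: wells of about 30 µL received 50 nL stock; many hits fall short of the cut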
Vif A3G: inhibitors of Vif binding to APOBEC3G peptide, primary screen, biochemical, TR-FRET, GST-Vif 1-94, biotin-A3G peptide, dose response retest (AID 1117319); Virion infectivity factor (Human immunodeficiency virus type 1 group M subtype B (isolate …; TR-FRET GST-Vif / biotin-A3G peptide binding; higher % means a stronger effect; test concentration not given here; strong numbers were not always called active; one-dose inhibition, %; IC50 in µM for titrated hits; hit rate 0.57% among 260,000;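 active = above the screen mean plus three standard deviations and confirmed in dose response; inconclusive = results disagree or hit not tested in dose response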;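 also: Vif residues 1-94 fused to GST binding biotinylated APOBEC3G peptide 110-148; 0% = full assay without inhibitor and 100% = GST in place of GST-Vif; retest series ran down from 100 µM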
* marks the source's active call; other numbers are inactive results; ? = inconclusive; . = no result given. Not all compounds are listed; the hit share may differ from the screen's.

molecule	HNF4A DNA FP	LANA-H2A inh	A1 inh	Vif A3G
COC(=O)[C@@]1(Cc2ccc(OC)cc2)[C@H]2c3cc(C(=O)N4CCCC4)n(Cc4ccc(C)o4)c3C[C@H]2CN1C(=O)c1ccccc1	.	.	.	0%
CC(C)Cn1cnc2c(c1=O)c1nc3ccccc3nc1n2Cc1ccc2c(c1)OCO2	.	.	.	?
O=C1[C@@H]2Cc3c([nH]c4ccccc34)[C@@H](c3ccccc3)N2C(=O)[C@@H]2Cc3c([nH]c4ccccc34)[C@@H](c3ccccc3)N12	.	.	.	12%
CCN1C/C(=C\c2cccc(C)c2)c2nc3ccccc3c(C(=O)O)c2C1	.	.	.	-1%
CCOC(=O)c1cnc(-n2nc(C)cc2C)nc1Nc1ccccc1OC	.	.	.	-2%
O=Nc1ccc(NOC(=O)c2ccc(Br)cc2)cc1	.	.	.	4%
O=c1c2ccccc2oc2nc3ccn(Cc4ccncc4)c(=O)c3cc12	.	.	.	0%
COCCCn1c(-c2ccc(OC)cc2)nc2nc3ccccc3nc21	.	.	.	0%
Cc1cc(C)nc(-n2nc(C)cc2NC(=O)c2cccc(S(=O)(=O)N3CCCCC3)c2)n1	.	.	.	-8%
CSc1nc(-c2ccco2)nn1C(=O)c1ccc(Cl)cc1	.	.	.	5%
Cc1ccc(Oc2ccc(-c3nnc(-c4ccccc4)o3)cc2[N+](=O)[O-])cc1C	.	.	.	-9%
O=C(Nc1ccc(F)c([N+](=O)[O-])c1)c1ccc2c(c1)C(=O)OC2=O	.	.	.	-2%
Cc1ccc(-c2c(=O)n(OCc3ccccn3)c3ccccc3[n+]2[O-])cc1	.	.	.	-5%
COc1cc(C(=O)NC2CCCNC2)cc(OC)c1OC (stereo not given)	.	.	.	-5%
CCCN1C(=O)S/C(=C\c2ccc(N3CCOCC3)cc2C)C1=O	.	.	.	23µM*
COc1ccc(-c2noc(-c3cc(Cl)ccc3Cl)n2)cc1OC	.	.	.	25%

Sorted by count of non-hydrogen atoms (smallest number first): some entries from above
molecule	HNF4A DNA FP	LANA-H2A inh	A1 inh	Vif A3G
CSc1nc(-c2ccco2)nn1C(=O)c1ccc(Cl)cc1	.	.	.	5%
COc1ccc(-c2noc(-c3cc(Cl)ccc3Cl)n2)cc1OC	.	.	.	25%
CCCN1C(=O)S/C(=C\c2ccc(N3CCOCC3)cc2C)C1=O	.	.	.	23µM*
COCCCn1c(-c2ccc(OC)cc2)nc2nc3ccccc3nc21	.	.	.	0%
O=c1c2ccccc2oc2nc3ccn(Cc4ccncc4)c(=O)c3cc12	.	.	.	0%
Cc1ccc(Oc2ccc(-c3nnc(-c4ccccc4)o3)cc2[N+](=O)[O-])cc1C	.	.	.	-9%
Cc1cc(C)nc(-n2nc(C)cc2NC(=O)c2cccc(S(=O)(=O)N3CCCCC3)c2)n1	.	.	.	-8%

Two successive entries out of the list so far, for reference:
molecule	HNF4A DNA FP	LANA-H2A inh	A1 inh	Vif A3G
COC(=O)[C@@]1(Cc2ccc(OC)cc2)[C@H]2c3cc(C(=O)N4CCCC4)n(Cc4ccc(C)o4)c3C[C@H]2CN1C(=O)c1ccccc1	.	.	.	0%
CC(C)Cn1cnc2c(c1=O)c1nc3ccccc3nc1n2Cc1ccc2c(c1)OCO2	.	.	.	?

Next part
molecule	HNF4A DNA FP	LANA-H2A inh	A1 inh	Vif A3G
Cc1cc(C)c(S(=O)(=O)N2CCN(CCN3C(=O)c4cccc5cccc(c45)C3=O)CC2)cc1[N+](=O)[O-]	.	.	.	29%
CC(C)OC(=O)CCC/C=C\C[C@@H]1[C@@H](CC[C@@H](O)CCc2ccccc2)[C@H](O)C[C@@H]1O	.	.	.	1%
CN(C(=O)c1c(Br)cnn1C)C12CC3CC(CC(C3)C1)C2	.	.	.	4%
COCCN1C(=O)C(=O)/C(=C(/O)c2ccc(S(=O)(=O)N3CCOCC3)cc2)C1c1ccc(C(C)C)cc1 (stereo not given)	.	.	.	-3%
Cc1ccc2c(c1)[nH]c1c(=O)n(CCC3=CCCCC3)cnc12	.	.	.	2%
CN(C)c1ncc(/C=C2/C(=O)NC(=S)N(C3CCCCC3)C2=O)cn1	.	.	.	2%
NN=C1c2cc([N+](=O)[O-])ccc2-c2ccc([N+](=O)[O-])cc21	.	.	.	15%
CNS(=O)(=O)c1ccc(NC(=O)c2nc3nc(C)cc(C(F)F)n3n2)cc1	.	.	.	-5%
Cc1ccc(C(=O)Oc2oc(-c3ccco3)nc2C=Nc2ccccc2)cc1	.	.	.	-1%
CCOc1ccc(N(CC(=O)NC(C)CC)S(=O)(=O)c2c(C)noc2C)cc1 (stereo not given)	.	.	.	-1%
Cc1cc(C)c2[nH]c(=O)c(CN(Cc3ccco3)C(=O)c3cccs3)cc2c1	.	.	.	-9%
O=C(Cc1cccs1)Nc1nnc(Cc2ccc(F)cc2)s1	.	.	.	-3%
C[C@@H](c1ncncc1F)[C@](O)(Cn1cncn1)c1ccc(F)cc1F	.	.	.	-1%
COc1ccc(C(=O)n2ccc(C)n2)cc1Br	.	.	.	-3%
Cn1cc(NC(=O)c2cc(NC(=O)c3cc(NC=O)cn3C)cn2C)cc1C(=O)NCCC(=N)N	.	.	.	0%
COc1ccc2c(c1OC)C(=O)c1ccccc1C2=O	.	.	.	-2%
O=C(c1cc2cc(Br)cc(Br)c2oc1=O)N1CCCc2ccccc21	.	.	.	5%
COc1ccc(-c2nnc3n2N=C(c2cccc(Br)c2)CS3)cc1OC	.	.	.	-7%
C[C@@H]1CN(c2c(F)c(N)c3c(=O)c(C(=O)O)cn(C4CC4)c3c2F)C[C@H](C)N1	.	.	.	0%
Cc1ccnc(SCCn2c(N3CCCCC3)nc3c2c(=O)[nH]c(=O)n3C)n1	.	.	.	28%
Cc1nc(-c2ccccc2)sc1-c1nc(-c2cccs2)ncc1S(=O)(=O)c1ccccc1	.	.	.	-29%
O=C(O)C1CCCN1S(=O)(=O)c1cccs1 (stereo not given)	.	.	.	25%
COc1cccc(/C=N/N2C(=O)C3C4c5ccccc5C(c5ccccc54)C3C2=O)c1OC (stereo not given)	.	.	.	19%
Cn1c(=O)c2c(SCc3ccccc3)nc(-c3ccco3)nc2n(C)c1=O	.	.	.	?
CC1=C(C(=O)N2CCN(c3cc(C)ccc3C)CC2)C2(CCC(C)CC2)OC1=O (stereo not given)	.	.	.	-7%
Cn1/c(=N/N=C/c2ccc([N+](=O)[O-])cc2)sc2ccccc21	.	.	.	1%
COC(=O)c1cc2sc(Cl)cc2n1Cc1nc(-c2cccc(C)c2)oc1C	.	.	.	6%
CN(C)c1ccc(C2CC(c3ccccc3)=Nc3nc(-c4ccccc4)cn32)cc1 (stereo not given)	.	.	.	-5%
Cc1cc2ncn(/N=C/c3cc(Br)ccc3O)c2cc1C	.	.	.	18%
CC(C)=NOCc1ccc(-c2cn([C@@H]3COC[C@H]3O)nn2)cc1	.	.	.	-1%
Cc1[nH][nH]c(=O)c1C(c1ccc(-c2ccc(Cl)cc2Cl)o1)c1c(C)[nH][nH]c1=O	.	.	.	6%
COC(=O)[C@@H]1CC[C@H](C)[C@@H](c2ccc(C)cc2)N1C(=O)c1ccc(/C=N/OC[C@@H](O)[C@H]2O[C@@H]3OC(C)(C)O[C@@H]3[C@H]2O)cc1	.	.	.	-6%
c1ccc2[nH]c(SN3CCOCC3)nc2c1	.	.	.	1%
COc1cccc(C(=O)N2CCN(C3CCN(Cc4ccccc4)CC3)CC2)c1	.	.	.	23%
Cc1nc(/N=C(\N)Nc2ccccc2)nc2ccccc12	.	.	.	-18%
N/C(Cc1cccc2ccccc12)=N\OC(=O)c1ccc(Br)o1	.	.	.	-4%
CCCn1c2c(c(O)c(C(=O)Nc3nc(C)cs3)c1=O)CCCC2	.	.	.	-1%
C[C@@H]1CN(CCCn2c3ccccc3c3ccccc32)C[C@H](C)N1	.	.	.	-12%
COc1ccccc1-c1c(NC(=O)c2ccco2)n(-c2ccccc2)nc(C)c1=O	.	.	.	-5%
CC(C)(C)C(=O)[C@@H]1[C@@H]2C(=O)N(Cc3ccccc3)C(=O)[C@@H]2[C@H]2c3ccccc3C=CN12	.	.	.	21%
COc1cc(/C=N/NC(N)=O)ccc1OC(=O)c1ccc(C)cc1	.	.	.	-3%
Cc1ncc(CO)c(/C=N/NC(=O)c2cc(O)c(O)c(O)c2)c1O	.	.	.	2.5µM*
Clc1cccc(-c2cc3nc4c(c(N5CCNCC5)n3n2)CCCC4)c1	.	.	.	-58%
OCCN1CCN(C(c2cccs2)c2ccc3cccnc3c2O)CC1 (stereo not given)	.	.	.	?
Oc1ccccc1-c1cc(C(F)(F)F)[nH]n1	.	.	.	7%
O=C1Nc2ccc(Br)cc2C1=Nc1ccc(-c2nnc3n2CCCCC3)cc1	.	.	0.1	9%
CC1(C)Oc2ccc3ccc(=O)oc3c2/C(=C/NCCN/C=C2\C(=O)C(C)(C)Oc3ccc4ccc(=O)oc4c32)C1=O	.	.	-0.6	1%
O=P(O)(O)CP(=O)(O)O	.	81*	.	-1%
O=C(O)CC12CSc3[nH]c(=O)sc3C1c1ccccc1OC2=O (stereo not given)	.	3.3	.	7%
COc1ccc(Cn2cc(CN3CC(N4CCSCC4)CS3(=O)=O)nn2)cc1 (stereo not given)	13	.	.	.
O=C(Nc1ccc2c(c1)OCO2)c1cc(C2CCCCN2S(=O)(=O)c2ccccc2)on1 (stereo not given)	-0.3	.	.	.
CCOc1ccc(-c2cc(C(=O)NCc3ccc(C(F)(F)F)cc3)[nH]n2)c(C)c1	-3.8	.	.	.
CC1(Oc2cccc(F)c2)CCN(Cc2ccc(-c3ccccc3)o2)C1 (stereo not given)	2.5	.	.	.
COc1ccc(C(=O)c2[nH]c(N)c(C(=O)NCCc3c[nH]c4ccccc34)c2-c2c(F)cccc2Cl)cc1	-2.5	.	.	.
Cc1cccc(C)c1NC(=O)C(c1cc2ccccc2o1)N1CCC(c2ccccc2)CC1 (stereo not given)	13	.	.	.
C=CCNc1nc2cc(-c3cccc(Cl)c3)sc2c(=O)n1C	1.9	.	.	.

The listing continues:
molecule	HNF4A DNA FP	LANA-H2A inh	A1 inh	Vif A3G
CCCCCNC(=O)C(c1cccc2ccccc12)n1c(=O)c(-c2ccccc2)nc2ccccc21 (stereo not given)	-1.9	.	.	.
OC(c1ccc2c(c1)OCO2)c1ncc(-c2ccc(Cl)cc2)[nH]1 (stereo not given)	-3.1	.	.	.
CCOC(=O)C1(C)CCCCCN1C(=O)c1ccccc1F (stereo not given)	0.3	.	.	.
CSCCC(C(=O)Nc1c(C)cccc1C)n1c(-c2cc(C)cs2)nc2ccccc21 (stereo not given)	-4.0	.	.	.
CN(C)CCN1CCN(C2CN(Cc3ccccc3)S(=O)(=O)C2)CC1 (stereo not given)	2.1	.	.	.
O=C(Nc1ccc2nc([C@H]3C[C@H](O)[C@@H](CO)O3)[nH]c2c1)NC(c1ccccc1)c1ccccc1	-2.7	.	.	.
O=c1[nH]c(=S)[nH]c2c1C(c1ccc(F)cc1)OC(C1CCCCC1)C2 (stereo not given)	-0.7	.	.	.
CC1(C(=O)NS(=O)(=O)c2ccccc2)CCN1C(=O)Cc1cccc2ccccc12 (stereo not given)	1.3	.	.	.
O=C(NCC1CC1)C1Cc2c(-c3ccccc3Oc3ccccc3)ccnc2O1 (stereo not given)	1.1	.	.	.
CC(C(=O)NC1CCCC1)n1c(-c2ccccn2)nc2ccccc21 (stereo not given)	0.7	.	.	.
CCN(CC(=O)Nc1c(F)cccc1F)C(=O)c1cccn1C	-0.4	.	.	.
COc1c(C)cc(C(O)c2ncc(-c3ccccc3C)[nH]2)cc1C (stereo not given)	-2.2	.	.	.

3 compounds already listed, sorted by the number in Vif A3G, smallest number first.
Molecule	LANA-H2A inh	A1 inh	Vif A3G
Clc1cccc(-c2cc3nc4c(c(N5CCNCC5)n3n2)CCCC4)c1	.	.	-58%
CC(C)=NOCc1ccc(-c2cn([C@@H]3COC[C@H]3O)nn2)cc1	.	.	-1%
c1ccc2[nH]c(SN3CCOCC3)nc2c1	.	.	1%
